Bioassay records as filed in PubChem.
VDR inh = Inhibitors of the vitamin D receptor (VDR): qHTS; VDR-SRC2-3 peptide fluorescence polarization, 2 h; Potency, µM, inactives show max response, negative = inhibition, actives largely listed as inhibitors; hit rate 0.93% among 400,000; AID 504847, 2011; active means well fitted inhibition curve with a large enough effect; inconclusive means small, poorly fitted or top-dose-only effect, or another doubt; inactive means no such curve, though single readings can be large or run the other way; further: series mostly up to about 120 µM
Target sequence (P11473 whole entry, looked up): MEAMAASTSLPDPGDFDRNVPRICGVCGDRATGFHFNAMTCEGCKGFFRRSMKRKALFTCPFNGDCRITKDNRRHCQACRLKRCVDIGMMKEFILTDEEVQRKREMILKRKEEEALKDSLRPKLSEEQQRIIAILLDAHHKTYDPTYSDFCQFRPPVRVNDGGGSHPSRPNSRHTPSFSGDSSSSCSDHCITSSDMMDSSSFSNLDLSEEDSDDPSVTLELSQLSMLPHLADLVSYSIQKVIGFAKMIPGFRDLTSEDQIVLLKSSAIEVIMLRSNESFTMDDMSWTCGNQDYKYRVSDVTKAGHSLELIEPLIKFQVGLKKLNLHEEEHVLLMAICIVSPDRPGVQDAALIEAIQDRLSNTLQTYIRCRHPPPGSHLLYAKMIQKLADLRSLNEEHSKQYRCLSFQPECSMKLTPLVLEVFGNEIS
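Compounds are added to VDR with labelled SRC2-3 coactivator peptide and held 2 h at room temperature. Inhibition of the VDR–peptide interaction is then read as a change in fluorescence polarization.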
An asterisk follows results filed as active; & = joins results of further samples. On the % scale 0 is the no-effect control and ±100 the full control effect; potency means the concentration at half of the fitted maximal effect.

For Cc1ccc(OC(F)F)c(N2C(=O)C3C4CCC(O4)C3C2=O)c1 (configuration not stated) the results were VDR inh -9%.
C#CCN(C)[C@@H](C)Cc1ccccc1 was read as VDR inh 2%.
C=CCNC(=O)c1c(N)n(CCN2CCOCC2)c2nc3ccccc3nc12 was read as VDR inh 1%.
`O=c1[nH]c(=S)[nH]c(O)c1N=Nc1ccc(S(=O)(=O)N2CCc3ccccc32)cc1` gave VDR inh -7%.
For COc1cc(C2SCC(=O)Nc3c2c(=O)[nH]n3C2CCCCCC2)cc(OC)c1OC (configuration not stated) the results were VDR inh 5%.
Screening COc1cccc(-n2c(O)c(C=Nc3c(C)n(C)n(-c4ccccc4)c3=O)c(=O)[nH]c2=O)c1 returned VDR inh -15%.
`COc1ccc(CC2(CCc3ccccn3)C(=O)NC(=O)N(c3ccccc3C)C2=O)cc1OC` (configuration not stated) gave VDR inh -7%.
`CC(C(=O)O)N(C(=O)c1ccccc1)c1ccc(F)c(Cl)c1` (configuration not stated) gave VDR inh 14%.
`COC(=O)Cn1cc(/C=C2\C(=O)NC(=O)N(c3ccccc3)C2=O)c2ccccc21` gave VDR inh 13%.
CC1(C)N=C(c2ccccc2)[C@@H]2C(c3ccc([N+](=O)[O-])cc3)N21 (some centres not stated) was read as VDR inh -19%.

The closing two compounds of the section before are carried over, then new ones follow.
`COC(=O)Cn1cc(/C=C2\C(=O)NC(=O)N(c3ccccc3)C2=O)c2ccccc21` gave VDR inh 13%.
CC1(C)N=C(c2ccccc2)[C@@H]2C(c3ccc([N+](=O)[O-])cc3)N21 (some centres not stated) was read as VDR inh -19%.
For COc1ccc(NC(=O)c2cc([N+](=O)[O-])ccc2N2CCNCC2)cc1 the results were VDR inh -6%.
Screening CC[C@@]1(O)C(=O)OCc2c1cc1n(c2=O)Cc2cc3ccccc3nc2-1 returned VDR inh 0%&8%&5%.
Screening CC(C)Nc1ccc(Nc2ccccc2)cc1 returned VDR inh 40µM*.
For O=C(Nc1ccc(Cl)cc1)N1CC1 the results were VDR inh 6%.
Screening CN(C(=O)COc1nc2ccccc2s1)c1ccccc1 returned VDR inh 11%.
For CC12CN3CN(C1)CC(C)(C3)C2=NO the results were VDR inh 5%.
`COC(=O)C1=C(c2ccc(F)cc2OCc2ccccc2)C[C@@H]2CC[C@H]1N2C(=O)NCc1cccc(F)c1` gave VDR inh inconclusive.
CC(CO)(CO)N=Cc1c(O)n(-c2cccc3ccccc23)c(=O)[nH]c1=O was read as VDR inh 3%.
COc1ccccc1CCNCc1cc2c(cc1[N+](=O)[O-])OCO2 was read as VDR inh 17%.
Screening COC(=O)C1=C(c2ccc3ccccc3c2)C[C@@H]2CC[C@H]1N2C(=O)N1CCCCC1 returned VDR inh -9%.
For CCCCCc1cc(O)c2c(c1)OC(C)(C)C1CC=C(C)CC21 (configuration not stated) the results were VDR inh inconclusive.
`COC(=O)C1=C(c2ccc(OC)c(OC)c2)C[C@@H]2CC[C@H]1N2C(=O)NCc1cccc2ccccc12` gave VDR inh 5%.
`CN1CCN(c2nc3ccccc3o2)CC1` gave VDR inh 4%.
Screening CCC(=NC1CC1)c1c(O)n(-c2ccc(OC)cc2)c(=O)[nH]c1=O returned VDR inh -6%.
Cn1ccnc1P(=S)(c1nccn1C)N1CCOCC1 was read as VDR inh inconclusive.
`Cc1ccc(S(=O)(=O)c2nc(-c3ccccc3Cl)oc2N(C)C2CCN(C)CC2)cc1` gave VDR inh -13%.
COc1ccc(C2NCc3ccc4c(c3-n3cccc32)OCO4)cc1OC (configuration not stated) was read as VDR inh -10%.
For Cc1ccsc1C(=O)C1CCCN(Cc2cccn2-c2ccccn2)C1 (configuration not stated) the results were VDR inh 9%.
`Cc1ccc(OCCSC2=NN2c2cc(C)nc(N)n2)cc1` gave VDR inh 2%.
Screening CN1C(=O)C(=Cc2cn(CC(=O)N3CCCC3)c3ccccc23)C(=O)N(C)C1=O returned VDR inh -2%.
CC(=NCCc1ccccc1)c1c(O)n(C)c(=O)n(C)c1=O was read as VDR inh 3%.
CN1C(=O)C(=Cc2ccccc2OCc2ccccc2Cl)C(=O)N(C)C1=O was read as VDR inh inconclusive.
CCCC(C)C1(CC)C(=O)NC(=Nc2ccc(F)cc2)NC1=O (configuration not stated) was read as VDR inh -3%.
Screening Cc1ccc2nc3c(cc2c1)CC1(C(=O)N(C)C(=O)N(C)C1=O)C1COCCN31 (configuration not stated) returned VDR inh 6%.
Screening COc1ccc(CN2CCN(C(=O)Cc3ccccc3)CC2)c(OC)c1 returned VDR inh -5%.
Screening c1ccc(CNCCc2c[nH]c3ccccc23)cc1 returned VDR inh -18%.
O=c1c2ccccc2nc(-c2ccco2)n1-c1cccnc1 was read as VDR inh 23%.
`CC12CCC3C(CCC4=C(O)C(=O)CCC43C)C1CCC2=O` (configuration not stated) gave VDR inh -1%.
`CCCCCCn1c(O)c(C=NCCCn2ccnc2)c(=O)[nH]c1=O` gave VDR inh -13%.
Screening CC(CO)NC(=O)C1C=C2c3cccc4[nH]cc(c34)CC2N(C)C1 (configuration not stated) returned VDR inh inconclusive.

The final 2 records of the part before come first, to join the parts.
`CCCCCCn1c(O)c(C=NCCCn2ccnc2)c(=O)[nH]c1=O` gave VDR inh -13%.
Screening CC(CO)NC(=O)C1C=C2c3cccc4[nH]cc(c34)CC2N(C)C1 (configuration not stated) returned VDR inh inconclusive.
C[C@]12CC[C@H](O)C[C@@H]1CC[C@@H]1[C@@H]2CC[C@]2(C)C(=O)CC[C@@H]12 was read as VDR inh -1%.
`COc1ccc(N=Cc2c(O)n(CC3CCCO3)c(=O)[nH]c2=O)cc1` (configuration not stated) gave VDR inh 3%.
For CCCNC(=O)N1[C@H]2CC[C@@H]1C(C(=O)OC)=C(c1cccc(OC)c1OC)C2 the results were VDR inh 1%.
`COc1cccc(OP(=O)(Nc2ccccc2)Oc2cccc(OC)c2)c1` gave VDR inh -12%.
For O=c1[nH]c(=O)n(Cc2ccc(F)cc2)c(O)c1C=NCCN1CCCCC1 the results were VDR inh -3%.
Screening CC(=NCCCN1CCOCC1)c1c(O)n(Cc2ccccc2)c(=O)[nH]c1=O returned VDR inh 3%.
`CC(=O)C1CCC2C3CCC4CC(O)CCC4(C)C3CCC12C` (configuration not stated) gave VDR inh 0%.
For COCCCNC(=O)c1c(NC(=O)c2ccccc2)n(Cc2ccccc2)c2nc3ccccc3nc12 the results were VDR inh -25%.
For CCCC(C)n1[nH]c(=O)c2c1NC(=O)CSC2c1ccccc1 (configuration not stated) the results were VDR inh 17%.
Screening OC(c1ccc(F)cc1)C(c1ccccc1)N1CCOCC1 (configuration not stated) returned VDR inh 5%.
COc1ccc(C(=O)C(Cc2ccccc2)N(C)C)cc1 (configuration not stated) was read as VDR inh -1%.
CCOP(=O)(OCC)C(O)c1ccc(OC)cc1 (configuration not stated) was read as VDR inh 5%.
For COc1ccc(CCN)cc1OC the results were VDR inh -12%.
Screening CCC12CN3CCN(CC(C3)C1O)C2 (configuration not stated) returned VDR inh 6%.
Screening COC(=O)C(c1ccccc1)N1CCCCCC1 (configuration not stated) returned VDR inh 14%.
`CN1CCC(O)(c2ccc(F)cc2)C(C(=O)c2ccc(F)cc2)C1` (configuration not stated) gave VDR inh inconclusive.
Screening O=c1[nH]c(=O)n(Cc2ccccc2)c(O)c1/C=N/Nc1c(F)c(F)c(F)c(F)c1F returned VDR inh -17%.
Screening O=C1NC(=O)N(c2ccccc2)C(=O)/C1=C/C=C/c1ccco1 returned VDR inh 20µM*.
Screening COc1ccc(CCNC2CCCCC2)cc1OC returned VDR inh -1%.
For COc1ccc(-n2cnc3cc(C(=O)N4CCC5(CC4)OCCO5)ccc32)cc1 the results were VDR inh -9%.

Quoted at random: three entries already listed.
For CCCNC(=O)N1[C@H]2CC[C@@H]1C(C(=O)OC)=C(c1cccc(OC)c1OC)C2 the results were VDR inh 1%.
`Cc1ccc(S(=O)(=O)c2nc(-c3ccccc3Cl)oc2N(C)C2CCN(C)CC2)cc1` gave VDR inh -13%.
Screening COC(=O)C(c1ccccc1)N1CCCCCC1 (configuration not stated) returned VDR inh 14%.

Additional results follow:
CC(=O)C1CCC2C3CCC4=CC(=O)CCC4(C)C3CCC12C (configuration not stated) was read as VDR inh inconclusive.
For CCOC(=O)C1CCN(/C=C2/C(=O)NC(=S)N(c3cccc(OC)c3)C2=O)CC1 the results were VDR inh -20%.
`COc1ccccc1C=C1C(=O)NC(=S)NC1=O` gave VDR inh 45µM*.
`C=C1[C@@H]2C[C@]3(C(CC2=O)[C@]24C5C[C@H]3[C@H]2N(CC)C[C@]5(C)CC[C@@H]4O)[C@@H]1O` (some centres not stated) gave VDR inh -14%.
Screening O=C(Nc1ccccc1)c1cc([N+](=O)[O-])ccc1N1CCNCC1 returned VDR inh -11%.
For CN(C)c1ccc(/C=C2\C(=O)NC(=O)N(Cc3ccc(F)cc3)C2=O)cc1 the results were VDR inh -14%.
Screening CCc1cc(=O)oc2cc(C)cc(OCC(=O)N3CCC(C(=O)O)(c4ccccc4)CC3)c12 returned VDR inh -5%.
Screening Oc1c(Cl)cc(Cl)cc1CN1CCN(Cc2ccccc2)CC1 returned VDR inh -3%.
CC(c1ccccc1)(c1ccccc1)c1ccncc1 was read as VDR inh -4%.
c1ccc2c3c([nH]c2c1)C1(CCNCC1)NCC3 was read as VDR inh 6%.
For O=Cc1c(C(=O)O)n(Cc2ccccc2Cl)c2ccccc12 the results were VDR inh 19%.
For Cc1ccc(/C=C2\C(=O)NC(=S)N(c3ccc(F)cc3)C2=O)o1 the results were VDR inh -6%.
Screening CCCc1ccc(OCC(=O)Nc2ccc(Cl)cc2C(=O)c2ccccc2)cc1 returned VDR inh -15%.
`CC(Cc1ccccc1)NCCC(c1ccccc1)c1ccccc1` (configuration not stated) gave VDR inh -19%.
Screening O=C(COc1ccc(Cl)cc1)N1CCN(Cc2ccccc2)CC1 returned VDR inh 5%.
`COc1ccc2c3c1O[C@H]1C(=O)CC[C@H]4[C@@H](C2)N(C)CC[C@]314` gave VDR inh -15%&-2%.
For c1cnc(OCCN2CC2)cn1 the results were VDR inh -23%.
For COc1ccc(-c2nc(CN3C(=O)CN=C(c4ccccc4Cl)c4cc(Cl)ccc43)c(C)o2)cc1OC the results were VDR inh 4%.
CC(C)[C@@]1(NC(=O)[C@@H]2C[C@H]3c4cccc5[nH]cc(c45)C[C@@H]3N(C)C2)O[C@]2(O)[C@H]3CCCN3C(=O)[C@H](Cc3ccccc3)N2C1=O was read as VDR inh -1%.
For COC(=O)Cn1cc(C=C2C(=O)NC(=O)NC2=O)c2ccccc21 the results were VDR inh -3%.
For CCOC(=O)c1c(C)n(Cc2ccco2)c2c1cc(O)c1ccccc12 the results were VDR inh -11%.
For c1ccc2c(c1)cc1ccc3cccc4ccc2c1c34 the results were VDR inh 3%.
For Cc1nn(Cc2ccccc2)c(Cl)c1C(=O)OC(C)C(=O)Nc1ccc(F)cc1Cl (configuration not stated) the results were VDR inh 14%.
`COc1ccc(C2=NCC(=O)N(CC(=O)NCc3ccco3)c3sc4c(c32)CCCC4)cc1` gave VDR inh 5%.
COc1cc(CN=Cc2c(O)n(C(C)(C)C)c(=O)[nH]c2=O)cc(OC)c1 was read as VDR inh 0%.
O=c1[nH]c(=O)n(CCC2=CCCCC2)c(O)c1C=NC1CCN(Cc2ccccc2)CC1 was read as VDR inh 14%.
NC(=Nc1ccccc1)NN=Cc1c[nH]c2ccccc12 was read as VDR inh -15%.
Screening O=C1NC(=O)N(Cc2ccccc2)C(=O)C1Cc1ccccc1 (configuration not stated) returned VDR inh inconclusive.
For CN1Cc2ccccc2[C@@H]2c3cccc4[nH]cc(c34)C[C@H]21 the results were VDR inh 14µM*.
For CCN1C[C@]2(COC)[C@H](O)C[C@H](OC)[C@]34C1C([C@H](OC)[C@H]23)[C@]1(OC(C)=O)C2[C@@H](OC(=O)c3ccccc3)C(O)(C[C@H]24)[C@@H](OC)[C@@H]1O the results were VDR inh -1%&-6%.

Of the compounds above, these contain a COOH group.
`CC(C(=O)O)N(C(=O)c1ccccc1)c1ccc(F)c(Cl)c1` (configuration not stated) gave VDR inh 14%.
Screening CCc1cc(=O)oc2cc(C)cc(OCC(=O)N3CCC(C(=O)O)(c4ccccc4)CC3)c12 returned VDR inh -5%.
For O=Cc1c(C(=O)O)n(Cc2ccccc2Cl)c2ccccc12 the results were VDR inh 19%.

Additional entries follow.
Screening CCCCn1c(O)c(C(C)=Nc2ccc3c(c2)CCC3)c(=O)[nH]c1=O returned VDR inh 6%.
For CCC(=NCCC(c1ccccc1)c1ccccc1)c1c(O)[nH]c(=O)[nH]c1=O the results were VDR inh 2%.
For O=C(c1ccc2c(c1)ncn2C1CCCCC1)N1CCC2(CC1)OCCO2 the results were VDR inh -6%.
For CCNN the results were VDR inh 0%.

A portion of the library; the hit share may differ from the screen's.
